GIV-Gai inh = blocks GIV peptide binding to rat Galpha-i3; P08753; Galpha-i3/FITC-GIV peptide fluorescence polarization, 90 min; active compounds read low; scaled: aluminum fluoride 0%, vehicle 100%; percent of control (FP), % (no concentration beside the values); actives 0.42% (n = 210,000);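 active means replicate mean at 85% of control or lower, very high polarization wells dropped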;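 further: wells of about 15 µL received 100 nL stock; the first replicate is given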
Target sequence (P08753 whole entry, looked up): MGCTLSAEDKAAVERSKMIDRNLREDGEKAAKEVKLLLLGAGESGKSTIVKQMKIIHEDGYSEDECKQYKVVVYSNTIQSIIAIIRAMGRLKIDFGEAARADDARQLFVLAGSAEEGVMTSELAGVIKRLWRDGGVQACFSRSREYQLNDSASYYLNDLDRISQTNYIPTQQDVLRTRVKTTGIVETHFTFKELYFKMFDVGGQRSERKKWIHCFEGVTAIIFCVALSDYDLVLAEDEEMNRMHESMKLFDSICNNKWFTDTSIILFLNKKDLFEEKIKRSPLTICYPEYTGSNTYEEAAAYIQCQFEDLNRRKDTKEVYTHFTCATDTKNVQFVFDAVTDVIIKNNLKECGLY
HCMV UL50-53 inh = cytomegalovirus nuclear egress complex inhibition. HTRF UL50-UL53 interaction, normalized percent inhibition. inhibition, % (no concentration beside the values). actives 0.15% (n = 190,000);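 active means both replicates at 50% or more, plus weaker picks with an unusually low signal ratio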;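 further: stock transfer was 100 nL into about 20 µL; 0% = negative control wells and 100% = wells with untagged competitor protein; inactives centre near -12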
* marks the source's active call; other numbers are inactive results; . = no result given; & = joins results of further samples.

SMILES	GIV-Gai inh	HCMV UL50-53 inh
COC(=O)C(NC(C)=O)(Nc1ccc(Cl)cn1)C(F)(F)F (stereo not drawn)	106	.
Nc1nnc(SCc2nnc(-c3ccc4c(c3)OCO4)o2)s1	99	.
CCOc1ccccc1N/C(SCc1ccc(C)cc1C)=C(/C#N)C(=O)NCCc1ccc(OC)c(OC)c1	103	.
COc1ccc(C2/C(=C(\O)c3ccc(Cl)cc3)C(=O)C(=O)N2CCCN2CCOCC2)c(OC)c1 (stereo not drawn)	109	.
Cc1nc2cc(NC(=O)c3ccc(Cc4ccccc4)cc3)ccc2s1	96	.
CCN(CC)CCCNC(=O)c1sc2ncnc(N(C)c3ccccc3)c2c1C	105	.
Cc1nc(N2CCCCC2)c2c(C)c(C(=O)N3CCN(c4ccccc4F)CC3)sc2n1	112	.
CCc1c(C(=O)c2ccccc2)oc2c(C)c3oc(=O)cc(C)c3cc12	103	.
O=C(NCc1noc(-c2ccccc2)n1)c1ccc(Cl)nc1	100	.
O=C(Nc1ccccc1C(=O)N1CCN(c2ccccc2)CC1)c1cccc(S(=O)(=O)N2CCCCC2)c1	105	.
COC(=O)c1ccc(N2CCN(C)CC2)c(NC(=O)Cc2ccc(OC)c(OC)c2)c1	109	.
CCn1nccc1C(=O)N1CCC(Nc2ncnc3c2CCC3)C1 (stereo not drawn)	100	.
COC(=O)c1ccc2c(c1)nc(SCC(=O)NCc1ccccc1)n1c3ccccc3nc21	110	.
COCCNc1nc(Nc2ccc3c(c2)OCO3)c2cnn(-c3ccccc3)c2n1	103	.
O=[N+]([O-])c1ccc(-c2nc(-c3ccccc3)[nH]c2-c2ccc(Oc3ccc(-c4nc(-c5ccccc5)[nH]c4-c4ccc([N+](=O)[O-])cc4)cc3)cc2)cc1	107	.
COc1ccccc1/C=C1\N=C(c2ccc(OC)c(OC)c2)N(c2ccc(OC)c(OC)c2)C1=O	120	.
CCc1ccc(NC(=O)NCc2ccc3c(c2)N(C(=O)c2ccccc2)C(C)C3)cc1 (stereo not drawn)	109	.
COC(=O)c1ccc(N2C(=O)/C(=C/c3ccc(-c4ccc([N+](=O)[O-])cc4)o3)C=C2c2ccccc2)cc1	130	.
Cc1c(N(CC(=O)NN=C2CCC(C(C)(C)C)CC2)S(=O)(=O)c2ccccc2)c(=O)n(-c2ccccc2)n1C (stereo not drawn)	105	.
COc1cccc(NS(=O)(=O)c2cc(-c3nc(C)c(C(=O)N4CCCC4)s3)cs2)c1	106	.
O=C(CN1C(=O)CCCc2cc(S(=O)(=O)N3CCCC3)ccc21)NCc1cccnc1	100	.
CCn1c(=O)c(=O)n(CC(=O)N2CCN(c3ccccn3)CC2)c2cccnc21	101	.
COc1ccc(C(C)=O)cc1CSc1nc2ccccc2c(=O)n1NC(=O)Cc1ccccc1	110	.
O=S(=O)(c1ccccc1Cl)N1CCn2cccc2C1c1ccc(F)c(F)c1 (stereo not drawn)	103	.
Cc1nc(SCC(=O)Nc2ccc(C(N)=O)cc2)c(C#N)c(C)c1C	110	.

Single records, as listed above:
Results for `COc1ccc(C(C)=O)cc1CSc1nc2ccccc2c(=O)n1NC(=O)Cc1ccccc1` → GIV-Gai inh = 110; HCMV UL50-53 inh = .
Results for `CCN(CC)CCCNC(=O)c1sc2ncnc(N(C)c3ccccc3)c2c1C` → GIV-Gai inh = 105; HCMV UL50-53 inh = .

Returning to the listing; the 5 compounds before the break are reprinted first.
SMILES	GIV-Gai inh	HCMV UL50-53 inh
O=C(CN1C(=O)CCCc2cc(S(=O)(=O)N3CCCC3)ccc21)NCc1cccnc1	100	.
CCn1c(=O)c(=O)n(CC(=O)N2CCN(c3ccccn3)CC2)c2cccnc21	101	.
COc1ccc(C(C)=O)cc1CSc1nc2ccccc2c(=O)n1NC(=O)Cc1ccccc1	110	.
O=S(=O)(c1ccccc1Cl)N1CCn2cccc2C1c1ccc(F)c(F)c1 (stereo not drawn)	103	.
Cc1nc(SCC(=O)Nc2ccc(C(N)=O)cc2)c(C#N)c(C)c1C	110	.
CCOC(=O)c1cnn(-c2ccc(C(=O)N3CCCC3)cc2)c1N	110	.
O=C(O)c1cc(N2C(=O)/C(=C/c3ccc(-c4ccc(Br)cc4)o3)C=C2c2ccccc2)ccc1Cl	118	.
COc1cc(C2C(C#N)=C(N)Oc3n[nH]c(-c4ccc(Br)cc4)c32)cc(OC)c1OC (stereo not drawn)	105	.
Cc1cccc(NC(=O)c2ccc3c(c2)OCCCO3)c1	104	.
Cc1cc(C)cc(Oc2c(C(F)(F)F)oc3c(CN4CCOCC4)c(O)ccc3c2=O)c1	103	.
COc1ccc(NC(=O)c2ccccc2NC(=O)c2cccc(S(=O)(=O)N3CCC(C)CC3)c2)cc1	100	.
CCNS(=O)(=O)c1ccc2c(c1)Cc1cc(S(=O)(=O)NCC)ccc1-2	109	.
COc1ccc(/C=C2\SC(=S)N(CCC(=O)N(CCC#N)c3ccccc3)C2=O)cc1OC	110	.
O=C(CN1C(=O)CC(c2ccc(F)cc2)=Nc2cccnc21)NCc1ccccc1Br	103	.
Cc1cc2c(cc1C)N(C(=O)c1ccccc1)C(C)(C)c1ssc(=S)c1-2	123	.
C=CCn1c(=O)c(=O)n(Cc2ccc(C(=O)NC3CCCc4ccccc43)cc2)c2ccccc21 (stereo not drawn)	104	.
CCOc1ccc(NC(=O)c2ccc(F)c(S(=O)(=O)N3CCN(c4cccc(C)c4C)CC3)c2)cc1	123	.
CCOc1ccc(NC(=O)c2ccc(N3CC4CC(C3)c3cccc(=O)n3C4)c(NC(=O)c3ccc(OC)cc3)c2)cc1 (stereo not drawn)	108	.
N#CC1=C(N)OC2=C(C(=O)CC(c3ccco3)C2)C1c1ccc(OCc2ccccc2F)cc1 (stereo not drawn)	105	.
CCc1ccc2c(c1)[C@H]1OCC[C@H]1C(c1cc(OC)ccc1OC)N2 (stereo partly drawn)	96	.
CCCCc1nnc2n1N=C(c1ccc(Br)cc1)CS2	108	.
Cc1ccc(NC(=O)Nc2nnc(CC(=O)NCc3ccccc3)s2)cc1C	102	.
Cn1cc(C(=O)Oc2cccc(F)c2)c2ccccc2c1=O	102	.
CCc1ccc2c(c1)[C@H]1OCC[C@H]1C(c1ccc(Cl)cc1)N2 (stereo partly drawn)	98	.
CCSc1nnc(-c2nn(C)c3c2CN(S(=O)(=O)c2ccc(CC(C)C)cc2)CC3)n1CC	104	.
O=C(CSc1nnc2c3sc(N4CCCC4)nc3ncn12)Nc1ccc(F)cc1	97	.
CC(=O)Nc1cccc(N2CC(C(=O)NC3CCCc4ccccc43)CC2=O)c1 (stereo not drawn)	114	.
Cc1ccc2nc(C3=C(O)c4ccccc4C3=O)ccc2c1	107	.
CCn1cc(C)c(C(=O)O)c1CC(=O)NC1CCN(Cc2ccccc2)CC1	100	.
CCS(=O)(=O)Nc1cc(-c2nnc(C3CC3)o2)sc1C	103	.

Next section:
SMILES	GIV-Gai inh	HCMV UL50-53 inh
O=C(NCCN1CCN(C(=O)c2cccc(F)c2)CC1)C(=O)Nc1ccccc1	107	.
CC(C)NS(=O)(=O)c1cccc2nsnc12	112&113	.
CC1(C)CC(=O)C2=C(C1)OC(N)=C(C#N)C2c1ccc2c(c1Br)OCO2 (stereo not drawn)	110	.
CCC(C)OC(=O)C1=C(C)NC2(O)c3ccccc3C(=O)C12O (stereo not drawn)	107	.
COc1ccc(C2CC(=O)NC(SCC(=O)Nc3ccc(C)c(C)c3)=C2C#N)cc1OC (stereo not drawn)	107	.
CCCCNC(=O)c1ccc2c(c1)nc(C1CCN(S(=O)(=O)c3ccc(C)cc3)CC1)n2C1CCCCC1	110	.
COc1cc(C(=O)N2CCN(CCN=Cc3c(C)[nH]n(-c4ccc([N+](=O)[O-])cc4)c3=O)CC2)cc(OC)c1OC	103	.
Cc1ccc(-n2c(=S)[nH]c3c(sc(=S)n3-c3ccccc3C)c2=O)cc1	120	.
CCOC(=O)c1ccc(Nc2ncnc3c2cnn3-c2ccc(C)cc2C)cc1	109	.
CC(=O)C1=NN(c2ccc(Br)cc2)C2(S1)c1ccccc1C(c1ccccc1)=NN2c1ccccc1 (stereo not drawn)	109	.
COc1cccc(C(=O)N2CCCC(c3nnc(C(=O)Nc4ccc(F)cc4)s3)C2)c1 (stereo not drawn)	104	.
COC(=O)C1=C(C(=O)OC)SC(=C2C(=S)C(C)(C)N(C(=O)c3ccc(-c4ccccc4)cc3)c3ccccc32)S1	105	.
COc1cc([N+](=O)[O-])ccc1N=c1ssc2c1-c1cc(C)c(C)cc1NC2(C)C	117	.
Cn1c(N2CCCC(C(=O)N3CCN(c4ncccn4)CC3)C2)cc(=O)n(C)c1=O (stereo not drawn)	108	.
CC(C)OC(=O)c1nnn(-c2nonc2N)c1CN1CCC(C(N)=O)CC1	101	.
Cc1cc(C)cc(NC(=O)Nc2ccc(CCc3nc4ccccc4[nH]3)cc2)c1	117	.
Cc1cc(N2CCCC2)n2nc(CN3CCC(N4CCCCC4)CC3)nc2n1	105	.
COc1ccc(-n2nc3c(c2NC(=O)c2ccc(C(=O)c4ccccc4)cc2)CS(=O)(=O)C3)cc1	105	.
O=C(CNC(=O)c1cccc(Br)c1)N/N=C/c1ccc([N+](=O)[O-])s1	102	.
O=C(Nc1nc2ccccc2n1CCN1CCCCC1)c1ccc2c(c1)OCO2	106	.
CCOC(=O)C1=C(C)N=c2s/c(=C\c3cccc(OCC(=O)O)c3)c(=O)n2C1c1ccc(F)cc1 (stereo not drawn)	111	.
Cc1csc(-c2cc(S(=O)(=O)NCc3ccccc3Cl)c(C)s2)n1	109	.
Cn1c(=O)c2[nH]c(-c3ccncc3)nc2n(C)c1=O	107	.
CCCn1cnnc1C1CCCN(C(=O)Cc2ccsc2)C1 (stereo not drawn)	104	.
Cc1csc(-c2cc(S(=O)(=O)NCCc3ccccc3)c(C)s2)n1	141	.

Next part:
SMILES	GIV-Gai inh	HCMV UL50-53 inh
O=C(CSc1ncnc2c1[nH]c1ccc(Br)cc12)NC1CCCCC1	105	.
C=CCOc1ccccc1C1CC(=O)Nc2c1c(C)nn2-c1ccc2nnc(C)n2n1 (stereo not drawn)	106	.
COc1ccc(Nc2nc(-c3nnn(-c4ccccc4)c3C)ns2)cc1OC	103	.
CC(=O)Nc1cnc(N2CCN(CCOc3ccc(Cl)cc3)CC2)c(C(=O)O)c1	108	.
CCOc1ccc(C(=O)Nc2cc(-c3nc4cc(C)ccc4o3)ccc2Cl)cc1Br	98	.
CC(C)(C)c1ccc(N2C(=O)/C(=C/c3ccc(-c4ccc([N+](=O)[O-])cc4)o3)C=C2c2ccccc2)cc1	117	.
CCS(=O)(=O)N1CCCCCC1c1ccc(C)s1 (stereo not drawn)	98	.
COc1ccc2c(c1)c(=O)c1ccccc1n2CC(=O)Nc1cccc([N+](=O)[O-])c1	106	.
Cc1cccc(N2C(=O)C(N3C(=O)c4c(Cl)c(Cl)c(Cl)c(Cl)c4C3=O)C2c2cccs2)c1 (stereo not drawn)	110	.
CCOc1ccc(N=c2ssc3c2-c2cc(C)c(C)cc2NC3(C)C)cc1	103	.
CCOc1cc(C2CC(=O)NC(SCC(=O)Nc3cccc(Cl)c3C)=C2C#N)ccc1O (stereo not drawn)	109	.
O=C(NCCc1ccccc1)c1c[nH]c2ccc(S(=O)(=O)N3CCCCC3c3cccnc3)cc2c1=O (stereo not drawn)	108	.
O=C1c2cc([N+](=O)[O-])cc3cc([N+](=O)[O-])cc(c23)C(=O)N1c1ccc(Br)cc1	109	.
CCOC(=O)c1ccc(NC(=O)CSc2nc3ccccc3c(=O)n2NC(=O)Cc2ccccc2)cc1	116	.
COc1cc(NC(=O)c2ccc(Oc3ccnc(-c4ccc(F)cc4)n3)cc2)cc(OC)c1	99	.
COC(OC)C12c3ccccc3C(c3ccccc31)C1C(=O)N(Cc3ccco3)C(=O)C12 (stereo not drawn)	112	.
CCCCC(=O)Nc1nnc(SCC(=O)Nc2nnc(-c3cccc([N+](=O)[O-])c3)s2)s1	106	.
Cn1c(CNS(=O)(=O)c2cccc3nsnc23)nc2cccnc21	102	.
COc1ccc(C(=O)CC2(O)C(=O)N(C)c3ccccc32)cc1[N+](=O)[O-] (stereo not drawn)	108	.
CCOC(=O)c1c(NC(=O)CSc2nnc(CNC(=O)c3ccco3)n2-c2cccc(C)c2C)sc2c1CCC2	113	.
Cc1ccc2c(c1)C1(NN=C(c3ccccc3O)S1)C(=O)N2 (stereo not drawn)	109	.
O=C(c1ccc2ccnc(N3CCN(c4ccccc4)CC3)c2c1)N1CCOCC1	104	.
COc1ccc(OCC(=O)N2CCN(C(=O)c3cc4ccccc4[nH]3)CC2)cc1	101	.
Cc1oc(C2CCN(C(=O)NC3CCCCC3)CC2)nc1C(=O)N1CCSCC1	100	.
CCC1C(c2ccccc2)NC(c2ccccc2)CC1(C)O (stereo not drawn)	107	.

The list goes on:
SMILES	GIV-Gai inh	HCMV UL50-53 inh
CC(C)c1nnc(-c2ccc(S(=O)(=O)N3CCCCC3)o2)o1	107	.
COc1ccc(OC)c(C2C(N3C(=O)c4c(Cl)c(Cl)c(Cl)c(Cl)c4C3=O)C(=O)N2c2ccc(OC)c(Cl)c2)c1 (stereo not drawn)	109	.
COc1cccc(C(=O)NCc2nnc(SCC(=O)N3N=C(c4cccs4)CC3c3ccc(C)cc3)n2C)c1 (stereo not drawn)	127	.
OCCN1CCN(c2ncnc3c2c(-c2ccccc2)cn3-c2cccc(C(F)(F)F)c2)CC1	100	.
CCOC(=O)c1sc2ncnc(Nc3ccc4c(c3)OCO4)c2c1C	104	.
CCOC(=O)C1=C(N)OC2=C(C(=O)CCC2)C1c1ccc(OCC)cc1 (stereo not drawn)	103	.
CCCC[C@H](C)C[C@H](O)/C=C/[C@@H]1[C@@H](CCCCCCC(=O)O)[C@@H](O)C[C@H]1O	.	4&4
CCOC(=O)C1OC1C(=O)NC(CC(C)C)C(=O)NCCC(C)C (stereo not drawn)	.	2
Nc1ncnc2c1ncn2[C@@H]1O[C@H](CO)C[C@H]1O	.	1

From PubChem BioAssay

Only part of the results is shown; rates above refer to the full screens.
